# D2 PAM: potentiates the human D2 dopamine receptor allosterically | 0.23% of 360,000 active | DiscoveRx D2 beta-arrestin cells, luminescence, 90 min; 100% = 57 uM dopamine signal | P14416 | potentiation, % (test concentration not listed); active = potentiation of 50% or more; inconclusive = 30% to 50%; inactive = 30% or less;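 also: compound concentration not given in the record; tested on top of an EC20 dose of dopamine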
# Target sequence (P14416 whole entry, looked up): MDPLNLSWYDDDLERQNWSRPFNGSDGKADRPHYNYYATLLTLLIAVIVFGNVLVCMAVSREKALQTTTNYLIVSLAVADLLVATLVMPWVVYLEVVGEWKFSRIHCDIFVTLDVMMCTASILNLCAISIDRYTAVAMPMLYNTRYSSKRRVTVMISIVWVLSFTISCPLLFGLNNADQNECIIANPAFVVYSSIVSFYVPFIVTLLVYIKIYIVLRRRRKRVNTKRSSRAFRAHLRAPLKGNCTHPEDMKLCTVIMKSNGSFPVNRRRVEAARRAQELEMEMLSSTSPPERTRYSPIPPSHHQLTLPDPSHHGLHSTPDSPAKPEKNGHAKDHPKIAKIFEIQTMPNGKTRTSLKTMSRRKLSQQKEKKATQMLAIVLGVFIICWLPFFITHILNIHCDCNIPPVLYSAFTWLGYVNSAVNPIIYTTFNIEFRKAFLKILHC
#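 D2 cells co-treated with compound plus 50 nM dopamine (EC20) for 90 min at 37 deg C to detect potentiation. Beta-arrestin recruitment was read as enzyme-fragment luminescence after 1 h at ambient temperature. Full response was set by 57 uM dopamine.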
# Six1-Eya2 blk: Six1/Eya2 interaction inhibition | 0.56% of 360,000 active | AlphaScreen GST-Six1/His-Eya2 binding, biochemical; active compounds read low; control for the full effect not named in the record | activity change, % (concentration not given with the values); in the data active = activity change below about -65%; inconclusive = about -30% to -65%; inactive = above about -30%; also: % is scaled to controls: 0 for no effect and ±100 for the full control effect
#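 GST-Six1 + His-Eya2 (5X stock: 250/500 nM); Tris pH 8.0, 300 mM NaCl, 0.05% BSA, 0.02% Tween 20; GSH donor/Ni acceptor beads; 1 h 37 °C dark; AlphaScreen readout.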
# D2 ag: agonists of human D2 dopamine receptor (beta-arrestin); DiscoveRx PathHunter D2 beta-arrestin, luminescence, 90 min; 100% = 57 uM dopamine signal; P14416; AID 624465; activation, % (concentration not given with the values); 0.084% of 360,000 active; in the data active = activation above about 40%; inconclusive = about 15% to 40%; inactive = below about 15%; also: compound concentration not given in the record; the text of the record calls up to 30% inactive
#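 Agonist mode: compounds alone added to overnight-plated D2 PathHunter cells for 90 min at 37 C, with 57 uM final dopamine (EC100) defining full response. Beta-arrestin recruitment detected by chemiluminescent reagent, read after 1 h at ambient temperature.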
# CtBP-E1A inh: inhibitors of CtBP/E1A interaction. activity change, % (concentration not given with the values). AlphaScreen GST-E1A/His-CtBP binding, 1536-well; active compounds read low; control for the full effect not named in the record. 0.49% of 340,000 active; in the data active means activity change below about -65%; inconclusive means about -30% to -65%; inactive means above about -30%; also: % is scaled to controls: 0 for no effect and ±100 for the full control effect
#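 Homogeneous bead-based format: GST-tagged E1A captured on glutathione donor beads, His-tagged CtBP on nickel acceptor beads; compounds precede bead addition by 2 h at 37 °C.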
# gsp ag: agonists of gsp mutant (McCune-Albright syndrome). gsp mutant cells, cAMP HTRF, 30 min; control for the full effect not named in the record. Potency, µM (series often up to 76.9 µM), for inactives: top-dose activation (cAMP increase), most hits filed as activators. 0.13% of 340,000 active. AID 624287; active = well fitted activation curve with a large enough effect; inconclusive = small, poorly fitted or top-dose-only effect, or another doubt; inactive = no such curve, though single readings can be large or run the other way; cell line not stated here;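 also: phosphodiesterase inhibitor Ro 20-1724 added with compounds to block cAMP breakdown; potency is read from the fitted curve at half-maximal effect; nearly all actives have a fitted effect of over 60% in size; about a fifth of the inactives were tested at one dose only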
#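 Cells in DMEM/10% FBS with G418 were pretreated with compounds in DMSO plus […] (300 uM stock) for 30 min at 37C. cAMP was measured by HTRF (cAMP-d2 plus anti-cAMP antibody-K) after 30 min at room temperature.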
# gsp antagonist: gsp mutant antagonism; gsp-mutant cells, cAMP HTRF, 30 min; control for the full effect not named in the record; Potency, µM (highest dose often 76.9 µM), for inactives: at the top dose activity change, negative = inhibition, actives largely listed as inhibitors; 0.4% of 340,000 active; AID 624288; active = falling curve of any shape with a large fitted effect; inconclusive = falling curve, mostly with a smaller effect; inactive = flat or rising curve; cell line not stated here;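 also: intracellular cAMP measured with PDE inhibitor Ro 20-1724 present during compound exposure; potency is read from the fitted curve at half-maximal effect; % is scaled to controls: 0 for no effect and ±100 for the full control effect; nearly all actives have a fitted effect of over 65% in size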
#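 HTRF cAMP measurement after 30 min RT detection following 30 min, 37C compound treatment alongside […] (added as 300 uM solution) in G418-selected cells seeded at 2000/well and grown 16–24 h.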
# Numbers without * were called inactive; ? = inconclusive; . = no result given; & = joins results of further samples; [ ] = remark or other dose.
SMILES,D2 PAM,Six1-Eya2 blk,D2 ag,CtBP-E1A inh,gsp ag,gsp antagonist
COc1ccc(C(=O)NNC(=O)CCc2ccccc2OC)cc1,-22,2,-9.6,8,-86%[inhibitor],-2%
O=C(C1CCCO1)N1CCN(S(=O)(=O)c2ccc(Cl)cc2)CC1 (stereo not drawn),6,-2,-1.0,4,-39%[inhibitor],14%
CC(=O)Nc1cccc(C(=O)OCC(=O)NCc2ccc(F)cc2)c1,-19,6,-4.0,4,4%[15.4 µM],2%
CC1(Cc2cccc(C(F)(F)F)c2)C(=O)Nc2c(Cl)cccc21 (stereo not drawn),-4,3,-4.6,0,.,.
COc1ccc(/C=N/NC(=S)NC2CCS(=O)(=O)C2)cc1OC (stereo not drawn),-13,1,0.3,-1,7%,3%
NC(=O)c1ccsc1NC(=O)c1coc2ccccc2c1=O,3,5,-2.1,-9,?,-4%
CCN1CCC(O)(C(C(=O)OC)c2ccccc2)CC1 (stereo not drawn),-1,-3,-1.9,3,3%,10%
Cc1ccc(S(=O)(=O)N2CCC(C(=O)N3CC(C)OC(C)C3)CC2)cc1 (stereo not drawn),-12,0,-4.2,5,-4%[15.4 µM],14%
CN1CCC(N(C)C(=O)c2cc(S(=O)(=O)N(C)c3ccccc3)ccc2Cl)CC1,-4,8,-4.5,11,-31%,-1%
CCCN1C(=O)/C(=C2/C=Cc3ccccc3N2CC)SC1=S,-7,-76*,2.9,-76*,-28%,-6%
Cc1cc(C)cc(N(CC(=O)NC2CCCCCC2)S(=O)(=O)c2c(C)[nH]c(=O)[nH]c2=O)c1,-10&0,3&3,-3.3,-1&6,-20%,-12%
COc1ccc(CCNC(=O)c2n[nH]c(=O)c3ccccc23)cc1,-7,3,-2.4,1,-1%,4%
Cc1oc(-c2ccccc2F)nc1CN1CCC(C(=O)NCCC2=CCCCC2)CC1,-8,-2,-3.6,0,-67%[inhibitor],-4%
Cc1cccc(NC(=O)c2ccccc2C(=O)Nc2cccc(C)c2)c1,-15,12,-5.0,1,0%[15.4 µM],5%
COCCNCC#CCOc1ccc(OC)cc1,-6,0,-1.8,-11,-2%,-1%
CC(=O)Nc1nc2ccc(S(=O)(=O)N3CCCC3)cc2s1,-9,-2,-1.3,-3,18%,-6%
O=C(CN1C(=O)CCC1=O)Nc1ccc(Br)cc1,-16,3,-1.0,13,-1%,9%
CC(=O)c1c(C)[nH]c(C(=O)OCc2cccc(Cl)c2)c1C,-25,-3,0.7,-12,11%[15.4 µM],?
COc1ccc(C(=O)ON=C2CCN(c3ccc([N+](=O)[O-])cc3)CC2)cc1,19,-12,0.6,-14,-16%,-13%
CCOc1ccccc1NS(=O)(=O)c1cccs1,-13,3,-5.8,4,-8%,-1%
Cc1cc(C)c(C(=O)N2CCCC(N3CCN(c4cccc(C(F)(F)F)c4)CC3)C2)o1 (stereo not drawn),-32,-18,-4.2,-26,?,50µM*
CCN(CC)CC(=O)Nc1sc(C)cc1C(=O)c1ccccc1,-6,?,-2.7,0,12%[15.4 µM],-15%
CCOc1cccc(C(=O)Nc2ccc(NC(=O)c3cc4ccccc4o3)c(OC)c2)c1,-34,10,?,2,1%[15.4 µM],1%
CCOC(=O)C1(CCCc2ccccc2)CCN(C(=O)CCC2=NNC(=O)CC2)CC1,3,1,0.5,3,-9%,-7%
Cc1cnc(NC(=O)CSc2nnc(-c3ccccc3)n2Cc2ccccc2)s1,-11,-3,-0.6,0,-17%,-2%
SMILES,D2 PAM,Six1-Eya2 blk,D2 ag,CtBP-E1A inh,gsp ag,gsp antagonist
Cc1c(NC(=S)NC(=O)C(C)(C)C)c(=O)n(-c2ccccc2)n1C,-13,8,-2.2,-15,-34%[inhibitor],9%
O=C(CNS(=O)(=O)c1ccccc1)NCc1ccccn1,-9,-2,0.5,-11,10%,-4%
Cc1sc2ncn(CC(=O)N3CCC(C(N)=O)CC3)c(=O)c2c1S(=O)(=O)N1CCOCC1,-3,-4,0.6,-13,?,5%
CCOc1ccc(-c2nnc(SCC(=O)NC3CC3)o2)cc1,-1,-4,4.7,.,-14%,-7%
CCNC(=S)N/N=C(\C)c1cccc(OC)c1,-3,6,-6.1,7,0%,18%
Cc1nnc(NC(=O)Cn2nc(C)c3ccccc3c2=O)s1,2,7,-1.2,5,-11%,-3%
CCCc1ccc(-c2cc(NC(=O)CSc3nnc(N)s3)n(-c3ccccc3)n2)cc1,-5,-2,0.2,0,-11%,?
Cc1cnc(C(=O)Nc2ccccc2-n2cccc2)cn1,-20,-4,-1.6,-4,-35%[inhibitor],10%
O=C(NCCO)/C(=C\c1cccc([N+](=O)[O-])c1)NC(=O)c1cccs1,-10,4,-3.3,4,7%,.
Cn1ncc(Cl)c1C(=O)N1CCN(c2ncccn2)CC1,-7,-1,-5.7,.,0%,-7%
CCN(CC)C1CCCCC1NS(=O)(=O)c1ccc(Cl)cc1 (stereo not drawn),-5,1,-30,4,?,6%
O=Cc1c(-c2ccc(F)cc2)nc2ccccn12,-4,3,-3.1,0,11%[15.4 µM],6%
O=C(CCSc1nnc(-c2ccncc2)o1)Nc1ccc(Cl)cc1,-19,-1,1.2,-2,-1%,-15%
O=C(CCC(=O)c1ccc(F)cc1)OC1CCOC1=O (stereo not drawn),-13,0,-3.9,-2,1%,11%[15.4 µM]
Cc1cccc(C)c1NC(=O)NC1(C(=O)N2CCCCC2)CCCCC1,4,-3,1.7,-1,-2%[15.4 µM],14%
O=C(NCc1ccccn1)Nc1ccc(Cl)c(Cl)c1,-15,0,-1.7,1,-12%,-7%
CCN(CC)S(=O)(=O)c1cccc(NC(=O)COC(=O)c2ccc(Br)o2)c1,-13,0,0.7,-2,-14%,-21%
COc1ccccc1Cc1c(-c2ccco2)nc2ccc(Cl)cn12,-3,-20,-5.5,-11,.,.
COc1ccc(NC(=O)c2ccc(COc3ccccc3OC)o2)cc1OC,9,11,-11,12,-5%,-7%
CCCCn1c(SCC(=O)Nc2nnc(C)s2)nc2c1c(=O)n(C)c(=O)n2C,-3,4,-1.4,2,16%,1%
NC(=O)CSc1ccc(S(=O)(=O)N2CCCCC2)cn1,-5,4,-7.6,-2,-7%,-10%
Cc1occc1C(=O)NCCCCNC(=O)c1ccoc1C,-17,4,-1.1,3,-27%,2%
Cc1cc(C)nc(N2CCN(C(=O)CCC(=O)Nc3nnc(CC(C)C)s3)CC2)n1,-10,7,1.5,-5,27%[15.4 µM],-5%
CCOc1ccc(/C=N/N2C(C)CCCC2C)cc1OC (stereo not drawn),-21,0,0.7,-9,12%,-9%
CCOC(=O)C(=O)NCC(c1cccs1)S(=O)(=O)c1ccc(C)cc1 (stereo not drawn),5,1,-1.4,5,10%[15.4 µM],1%
SMILES,D2 PAM,Six1-Eya2 blk,D2 ag,CtBP-E1A inh,gsp ag,gsp antagonist
Cc1ccc(C(=O)Nc2ccccc2C(=O)NC2CCCCC2)cc1S(=O)(=O)N1CCOCC1,-7,2,-1.0,-14,-1%,3%
COc1ccccc1NC(=O)CSc1ccc2nnc(-c3ccncc3)n2n1,0,?,-2.7,-6,?,6%
O=C(CC(c1ccccc1)c1ccccc1)Nc1ccc(Cl)cn1,-9,16,-3.8,13,0%,-7%
CCN1CCN(Cc2ccc(NC(=O)c3ccc(C)c(NC(=O)c4csc(-c5ccncc5)n4)c3)cc2C(F)(F)F)CC1,-12,-27,-2.7,-24,.,-2%
NS(=O)(=O)c1ccc(CNC(=O)C(c2ccccc2)c2ccccc2)cc1,-4,0,-1.1,3,2%[15.4 µM],-18%
COc1ccc(CN2CCNC(=O)C2CC(=O)N(C)Cc2nccs2)cc1OC (stereo not drawn),-7,3,1.6,-2,20%,8%
NCCCC[C@H]1CN=C(N)N1CCC12CC3CC(CC(C3)C1)C2,-1,5,-2.5,1,.,4%
O=[N+]([O-])c1ccc(-c2cnc(NO)nc2)cc1,?,-8,9.1,-25,24%,-5%
COc1cccc(NC(=O)CN2C(=O)NC(C)(CCC(C)C)C2=O)c1 (stereo not drawn),0,3,1.5,1,-7%[15.4 µM],11%
COC(=O)C(C)Sc1ncnc2c1c(-c1ccccc1)cn2-c1ccc(OC)cc1 (stereo not drawn),-6,-8,-1.8,-12,10%,-11%
CCN(CC)C(=O)C(=O)c1cn(CC(=O)NCc2ccc3c(c2)OCO3)c2ccccc12,-9,-4,-6.8,-1,20%,-3%
CCc1ccc(OCC(=O)NC(=S)Nc2ccc(F)cc2)c(Br)c1,6,6,7.9,5,-30%,7%
CCOC(=O)C1=C(N)N(c2cc(S(=O)(=O)N3CCOCC3)ccc2Cl)C(=O)C1,-5,0,-2.5,0,1%[15.4 µM],-8%
Nc1nonc1-n1nnc(C(=O)N/N=C/c2ccoc2)c1CSc1ccccc1,-6,3,-4.2,.,21%,-19%
CCOc1ccccc1C(=O)Nn1c(C2CCC2)nc2ccccc2c1=O,-12,11,-4.9,-25,-4%,-12%

# Of the compounds above, these have fluorine.
SMILES,D2 PAM,Six1-Eya2 blk,D2 ag,CtBP-E1A inh,gsp ag,gsp antagonist
CC(=O)Nc1cccc(C(=O)OCC(=O)NCc2ccc(F)cc2)c1,-19,6,-4.0,4,4%[15.4 µM],2%
CC1(Cc2cccc(C(F)(F)F)c2)C(=O)Nc2c(Cl)cccc21 (stereo not drawn),-4,3,-4.6,0,.,.
Cc1oc(-c2ccccc2F)nc1CN1CCC(C(=O)NCCC2=CCCCC2)CC1,-8,-2,-3.6,0,-67%[inhibitor],-4%
Cc1cc(C)c(C(=O)N2CCCC(N3CCN(c4cccc(C(F)(F)F)c4)CC3)C2)o1 (stereo not drawn),-32,-18,-4.2,-26,?,50µM*
O=Cc1c(-c2ccc(F)cc2)nc2ccccn12,-4,3,-3.1,0,11%[15.4 µM],6%
O=C(CCC(=O)c1ccc(F)cc1)OC1CCOC1=O (stereo not drawn),-13,0,-3.9,-2,1%,11%[15.4 µM]
CCN1CCN(Cc2ccc(NC(=O)c3ccc(C)c(NC(=O)c4csc(-c5ccncc5)n4)c3)cc2C(F)(F)F)CC1,-12,-27,-2.7,-24,.,-2%
CCc1ccc(OCC(=O)NC(=S)Nc2ccc(F)cc2)c(Br)c1,6,6,7.9,5,-30%,7%

# An excerpt of these results, tab-delimited:
Compound	D2 PAM	Six1-Eya2 blk	D2 ag	CtBP-E1A inh	gsp ag	gsp antagonist
NCCCC[C@H]1CN=C(N)N1CCC12CC3CC(CC(C3)C1)C2	-1	5	-2.5	1	.	4%
CCN(CC)C(=O)C(=O)c1cn(CC(=O)NCc2ccc3c(c2)OCO3)c2ccccc12	-9	-4	-6.8	-1	20%	-3%

# Bioassay records deposited in PubChem by National Center for Advancing Translational Sciences (NCATS).

# No enrichment for hits; about 1.4% have a hit in one of these screens.
